High-throughput results as filed in PubChem.
NPYLR7 ag: agonists of mosquito NPYLR7 receptor, primary screen, cell-based, Aedes aegypti, calcium fluorescence, mosquito biting behavior | AID 1259423, 2018 | Aedes aegypti neuropeptide Y-like receptor 7 (NPYLR7) | 0.15% of 270,000 active | activation, % at 10 µM | HEK293T NPYLR7/Galpha15, GCaMP6s calcium fluorescence; in the data active means activation above about 40%;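 further: 0% = vehicle and 100% = reference agonist at the receptor; some compounds past the cut are filed as inactive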
NPYLR7 ag max-min: second read-out of NPYLR7 ag, no call of its own (marks repeat the call); activation, %; measured here: Max-Min RFU normalised activation; some inactives read as strong as hits;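 span of the calcium signal over five minutes; 0% = vehicle and 100% = native peptide agonist; compound fluorescence can raise it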
Numbers without * were called inactive; & = joins results of further samples.

nr	SMILES	NPYLR7 ag	NPYLR7 ag max-min
1	C=CCSC(C)C(=O)Nc1ccc(NC(=O)C(C)(C)C)c(Cl)c1 (stereo not given)	-2	-5
2	COc1ccc(-c2cc3c(=O)n(CC(=O)NCCCc4ccccc4)ccn3n2)cc1	25	18
3	CCCCc1noc(CSc2n[nH]c(C(C)C)n2)n1	-4	-6
4	CCCC(=O)N1CCN(Cc2ccc(Br)cn2)CC1	2	1
5	Cc1csc2nc(Cn3c(C(F)(F)F)ccc(C(N)=O)c3=O)cc(=O)n12	-2	-2
6	O=C(CS(=O)(=O)c1ccc2c(c1)S(=O)(=O)N=CN2)N1CCCCCC1	4	-9
7	COc1ccc(-c2nn(-c3ccc(C)cc3C)c(OC(C)=O)c2-c2ccc(N)cc2)c(OC)c1	18	16
8	CSc1cccc(NC(=O)N2CC(=O)N3CCc4c(F)cccc4C3C2)c1 (stereo not given)	-13	-2
9	O=C1CCC2(CCN1)CCN(C(=O)CCn1cnc3ccccc3c1=O)CC2	0	-3
10	CCNc1ccc(C(O)(C(=O)OC)C(F)(F)F)cc1 (stereo not given)	6	6
11	O=C(c1cc2n(n1)CCN(Cc1cccc(C(F)(F)F)c1)C2=O)N1CCN(c2ccccc2Cl)CC1	17	29
12	O=C1CCC(C(=O)N2CCN(C3CCCCC3)C(=O)C2)CN1Cc1ccccn1 (stereo not given)	-1&5	-4&2
13	CCCc1nc(C)c(CNC(=O)c2cn(-c3ccccc3)nn2)s1	6	4

Pulled by structure from the list above:
nr	SMILES	NPYLR7 ag	NPYLR7 ag max-min
1	C=CCSC(C)C(=O)Nc1ccc(NC(=O)C(C)(C)C)c(Cl)c1 (stereo not given)	-2	-5
2	COc1ccc(-c2cc3c(=O)n(CC(=O)NCCCc4ccccc4)ccn3n2)cc1	25	18
11	O=C(c1cc2n(n1)CCN(Cc1cccc(C(F)(F)F)c1)C2=O)N1CCN(c2ccccc2Cl)CC1	17	29

Single records (already shown). Values in the order: NPYLR7 ag | NPYLR7 ag max-min
Entry for `O=C1CCC(C(=O)N2CCN(C3CCCCC3)C(=O)C2)CN1Cc1ccccn1` (stereo not given) → -1&5 | -4&2
Entry for `O=C(c1cc2n(n1)CCN(Cc1cccc(C(F)(F)F)c1)C2=O)N1CCN(c2ccccc2Cl)CC1` → 17 | 29
Entry for `C=CCSC(C)C(=O)Nc1ccc(NC(=O)C(C)(C)C)c(Cl)c1` (stereo not given) → -2 | -5

This is a subset; rates above refer to the full screens.
